Compound activity as filed in PubChem.
NPYLR7 agonist = mosquito NPYLR7 agonism; activation, % at 10 µM; HEK293T NPYLR7/Galpha15, GCaMP6s calcium fluorescence; hit rate 0.15% among 270,000; AID 1259423; in the data active = activation above about 40%;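 note: 0% = vehicle and 100% = reference agonist at the receptor; some compounds past the cut are filed as inactive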
NPYLR7 agonist max-min = second read-out of NPYLR7 agonist, no call of its own (marks repeat the call); activation, %; measured here: Max-Min RFU normalised activation; some inactives read as strong as hits;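 span of the calcium signal over five minutes; 0% = vehicle and 100% = native peptide agonist; compound fluorescence can raise it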
Active calls of the source: *; & = joins results of further samples.

SMILES | NPYLR7 agonist | NPYLR7 agonist max-min
O=c1[nH]c2ccccc2c(=O)n1Cc1cccnc1Oc1cccc(F)c1 | 7 | 5
CCN(C(=O)c1cccc(C#N)c1)c1cccc2ccccc12 | -1 | -3
CCCCCCCC(=O)N(CCCOCC)CC(=O)c1c(C)c(C(=O)OCC)n(CC)c1C | -8 | -7
CCc1nc2ccc(C(=O)NCCCN3CCCC3=O)cn2c1N(C=O)CC | -6 | -11
Cc1ccccc1CN1C(=O)C(C)Oc2ccc(F)cc21 (stereo not given) | -10 | -10
O=C(COc1ccccc1)Nc1ccc(C2SCC(=O)N2c2cccc(F)c2)cc1 (stereo not given) | 1 | 9
CC1CCCCN1CCCNC(=O)C(C1CCCC1)N1CCN(C(=O)c2ccc(F)cc2F)CC1 (stereo not given) | -17 | -11
COCCNC(=O)c1coc(CN(Cc2cccc(C(F)(F)F)c2)Cc2ccc(F)cc2F)n1 | 12 | 18
COc1ccccc1OCc1nnc(-c2ccccc2Cl)o1 | -1 | -4
O=[N+]([O-])c1cncc([N+](=O)[O-])c1Nc1ccccc1Cl | -2 | -7
O=C(NCCOc1ccccc1F)N1CCN(S(=O)(=O)c2cccc([N+](=O)[O-])c2)CC1 | 0 | -1
COc1cc(NC(=O)C2CC(=O)N(c3cccc(SC)c3)C2)ccc1N1CCCC1=O (stereo not given) | 4 | 2
O=C(CSc1ccc2nnc(CCNC(=O)c3ccccc3)n2n1)NCc1ccco1 | 7 | -6
COCc1ncc(CN2CC[C@@H](c3ccc(F)cc3)[C@H](O)C2)cn1 | -1 | 9
O=C(NCc1ccco1)c1cccc(Nc2c(Oc3ccccc3)cnn(-c3ccccc3Cl)c2=O)c1 | 4 | 4
COc1cn(CC(=O)NCc2ccccc2)c(CN2CCOCC2)cc1=O | 1 | -3
Cc1ccc(S(=O)(=O)N2CCCN(C(=O)c3ccc4c(c3)NC(=O)C3CCCN43)CC2)cc1 (stereo not given) | -3 | -6
CCOc1ccc(NC(=O)NCC2COC(C)(C)O2)cc1F (stereo not given) | -2 | -2
CCOC(=O)CNC(=O)COc1coc(CN2CCN(c3ccc(F)cc3)CC2)cc1=O | -1 | -3
O=C(NCCn1cccn1)C1(N2CCCCC2)Cc2ccccc2C1 | 1 | -1
CCCCCNC(=O)c1cc(-c2cccn2C)nn1-c1ccc(Cl)c(Cl)c1 | 2 | 17
C=CCn1c(=NC(=O)c2ccc(F)cc2)sc2cc(S(C)(=O)=O)ccc21 | 1 | -5
COc1ccc(-c2cccc(-n3cncc3C(=O)NCCc3cnc[nH]3)c2)cc1OC | 4 | 11
CCN1C(=O)C(=C2SC(=S)N(C3CCS(=O)(=O)C3)C2=O)c2ccccc21 (stereo not given) | 6 | 1
O=C(Cn1ncc(N2CCCC2)cc1=O)OCc1ccccc1 | 0 | -6

Continued; it opens with the two that closed the last part.
SMILES | NPYLR7 agonist | NPYLR7 agonist max-min
CCN1C(=O)C(=C2SC(=S)N(C3CCS(=O)(=O)C3)C2=O)c2ccccc21 (stereo not given) | 6 | 1
O=C(Cn1ncc(N2CCCC2)cc1=O)OCc1ccccc1 | 0 | -6
CCc1ccccc1-n1c(=O)[nH]c2sc3c(c2c1=O)CCN(C(=O)C1CCCO1)C3 (stereo not given) | 5 | 0
CC(NC1CCCC1)c1nc(-c2ccncc2)no1 (stereo not given) | 1 | 1
CC(Cn1cccn1)n1cnc2ccc(F)cc2c1=O (stereo not given) | 6 | 2
CCOC(=O)c1sc2nc(/C=C/c3ccc(OC)c(O)c3)[nH]c(=O)c2c1C | 1 | 0
O=C(NCCO)c1cc2n(n1)CCCN(c1nc3ccccc3s1)C2 | -15 | -15
CCCCCCc1ccc(C(=O)N2CCCC(C(=O)NC3CCCC[C@H]3NC(=O)c3ccc(F)cc3)C2)cc1 (stereo not given in full) | 0 | 6
Cc1cccc(C(=O)N2CCC(O)CC2)c1NS(=O)(=O)c1ccccc1C(F)(F)F | 11 | 9
CCNC(=O)[C@@H]1C[C@@H](N)CN1C(=O)c1cccc(-c2cccc(OC)c2)c1 | 21 | 11
COc1ccc(-c2nc(CN(Cc3c(C)nn(C)c3C)C3CC3)c(C)o2)c(C)c1C | -13 | -12
Cc1cc(C(=O)CSc2nnc(C3CC3)o2)c(C)n1Cc1ccco1 | -2 | 12
O=[N+]([O-])c1ccc(NN=C2CCCCc3ccccc32)cc1 | 2 | 1
CCCC(C)NC(=O)C1CCN(S(=O)(=O)c2cc(Cl)ccc2Cl)CC1 (stereo not given) | 0 | 21
Cc1c(C)n2c3c(=O)[nH]c(=O)n(C)c3nc2n1C(C)c1ccccc1 (stereo not given) | -8 | -8
CCC(C)(C)NC(=O)c1ccc(-n2nc(C)cc2C)cc1 | -7 | -9
OC12CC3CC(C1)CC(c1ccc(N=Cc4cccs4)cc1)(C3)C2 | 5 | 2
CCn1c(C2CCN(Cc3cccc(OCC(N)=O)c3)CC2)nn(C)c1=O | 0 | -4
CCc1nc(-n2ccc3nc4ccn(C5CCCCCC5)c(=O)c4cc3c2=O)n[nH]1 | 1 | 6
Cc1cccc(C)c1OCCOCC(O)CN1CCN(c2ccccn2)CC1 (stereo not given) | -5 | -1
COC(=O)C(C)Sc1nc2ccccc2c(=O)n1-c1cccc(OC)c1 (stereo not given) | 11 | 10
O=c1/c(=C\c2ccc(I)cc2)sc2nc(-c3cccs3)nn12 | 6 | 9
O=C(c1cnc(-c2ccccn2)s1)N1CCN(CCO)CC1 | 9 | -6
COc1ccc(S(=O)(=O)N2CCCCCC2)cc1NC(=O)CCl | -5 | -10
COc1cc(C2SCCN2C(=O)Nc2cc(C(F)(F)F)cc(C(F)(F)F)c2)ccc1OCc1ccccc1 (stereo not given) | 19 | 23
Cc1cc(CN(C)C(=O)Nc2nc(C)ns2)ccn1 | -5 | -9
CN1CCN(c2cc(=O)n(-c3ccccc3Cl)c(=O)[nH]2)CC1 | 8 | 9
Following part
SMILES | NPYLR7 agonist | NPYLR7 agonist max-min
COc1ccc(N2CCN(C(=O)c3cc(-c4ccc(C)c(C)c4)nn3-c3ccc(C)cc3C)CC2)cc1 | -3 | 0
O=C(Nc1cn[nH]c1)c1ccc(F)c(S(=O)(=O)NC2CC2)c1 | 9 | 6
COc1cccc(-c2cnc(-c3cccc(CNC(=O)c4ccc(C(F)(F)F)c(F)c4)c3)[nH]2)c1 | 3 | 2
CCCCn1nc(C)c2c1NC(=O)CC2c1cc2ccccc2n1C (stereo not given) | 1 | 6
Cc1c(C(=O)N2CCCCCC2(C)C(=O)NCC(C)C)oc2ccccc12 (stereo not given) | -9 | -4
O=C(Cc1cccc(Cl)c1)N1CCOC(COc2cccc(C(F)(F)F)c2)C1 (stereo not given) | -6 | -11
C=CCn1c(=NC(=O)c2ccc3ncsc3c2)sc2cc(S(C)(=O)=O)ccc21 | 3 | -2
CCn1cc2nc(OC)c(CNC(=O)c3cn4c(C)cccc4n3)cc2c1O | 7 | 3
Nc1c(/C=N\NC(=O)c2ccncc2)ccc2c1C(=O)c1ccccc1C2=O | -8 | -17
O=C1CC(c2cccs2)CC2=Nc3ccccc3NC(c3ccsc3)C12 (stereo not given) | 0 | -1
CCCc1cc(CNC(=O)c2ccc(N3CCC(C(C)N(C)C)CC3)nc2)on1 (stereo not given) | 8 | 5
O=[N+]([O-])c1c[n+]([O-])n(-c2cccc(C(F)(F)F)c2)n1 | -12 | -18
CN(C)Cc1ccc(C(=O)N2CC(c3ccncc3)C2)o1 | -1 | -4
CCOC(=O)CCC(=O)N1CCN(C(C(=O)Nc2ccc3c(c2)OCO3)C2CCCC2)CC1 (stereo not given) | 1 | 14
CCS(=O)(=O)Oc1ccc(CNC2CC2)cc1 | 3 | 4
CN1CC2(CCCN(Cc3ccc(C4CCCC4)s3)CC2)OC1=O (stereo not given) | 7 | 6
O=C(NCCc1cccc(C(F)(F)F)c1)C1CCC(=O)N(C2CC2)C1 (stereo not given) | 16 | 1
Cc1c(C)n2c3c(=O)n(CCCO)c(=O)n(C)c3nc2n1C(C)C | 4 | 0
Cc1nsc(NC(=O)N2CCN(Cc3ccc(F)cc3)C(=O)C2)n1 | -4 | 0
O=C(CCC1CCCO1)N1CCCN(Cc2cscn2)CC1 (stereo not given) | 11 | 8
CCOCCOc1nc(-c2cccc(F)c2)n(-c2ccc(NC(=O)C(Cl)c3ccccc3)cc2)n1 (stereo not given) | 15 | 23
O=C1C2CCCN2C(c2c(F)cccc2Cl)N1c1nccs1 (stereo not given) | 2 | 0
O=C1C(C(c2cccs2)N2CCOCC2)Sc2ncnn21 (stereo not given) | 2 | 3
CCN1CCN(CC(C)CNC(=O)Nc2cc(OC)ccc2C)CC1 (stereo not given) | 4 | 16
CCn1ccnc1-c1cccc(NC(=O)N[C@@H]2C=C[C@H](CO)C2)c1 | 5 | 2

Structures listed so far containing a nitro group on carbon:
SMILES | NPYLR7 agonist | NPYLR7 agonist max-min
O=[N+]([O-])c1cncc([N+](=O)[O-])c1Nc1ccccc1Cl | -2 | -7
O=C(NCCOc1ccccc1F)N1CCN(S(=O)(=O)c2cccc([N+](=O)[O-])c2)CC1 | 0 | -1
O=[N+]([O-])c1ccc(NN=C2CCCCc3ccccc32)cc1 | 2 | 1
O=[N+]([O-])c1c[n+]([O-])n(-c2cccc(C(F)(F)F)c2)n1 | -12 | -18

A draw from above in order of molar mass, descending:
SMILES | NPYLR7 agonist | NPYLR7 agonist max-min
COc1ccc(N2CCN(C(=O)c3cc(-c4ccc(C)c(C)c4)nn3-c3ccc(C)cc3C)CC2)cc1 | -3 | 0
COc1cccc(-c2cnc(-c3cccc(CNC(=O)c4ccc(C(F)(F)F)c(F)c4)c3)[nH]2)c1 | 3 | 2
O=C1CC(c2cccs2)CC2=Nc3ccccc3NC(c3ccsc3)C12 (stereo not given) | 0 | -1
CCn1ccnc1-c1cccc(NC(=O)N[C@@H]2C=C[C@H](CO)C2)c1 | 5 | 2
O=C(Nc1cn[nH]c1)c1ccc(F)c(S(=O)(=O)NC2CC2)c1 | 9 | 6
O=C(CCC1CCCO1)N1CCCN(Cc2cscn2)CC1 (stereo not given) | 11 | 8

Continuation.
SMILES | NPYLR7 agonist | NPYLR7 agonist max-min
CC(NC(=O)NCc1ccccn1)c1ccccc1Cl (stereo not given) | -7 | -8
CCC(C)CN1CCCC(c2nc(-c3ccncc3)ncc2-c2ccccc2)C1 (stereo not given) | 19 | 3
CC1CCc2c(sc3[nH]c(=S)n(CC4CCCO4)c(=O)c23)C1 (stereo not given) | 6 | 5
CCOc1ccc(C(=O)c2c(N)c(C(=O)Nc3ccccc3)c3ccccn23)cc1 | -4 | -10
CCNC(=O)NC(=O)CSc1nnc(-c2ccc(OC)cc2)n1CC1CCCO1 (stereo not given) | -6 | -8
Cc1ccc(NC(=O)CN2CN(c3ccccc3)C3(CCN(C(=O)COc4ccccc4)CC3)C2=O)cc1 | -4 | 0
CCc1ccc(-c2noc(CCC(=O)NC(C)c3ccc(S(N)(=O)=O)cc3)n2)cc1 (stereo not given) | 6 | 1
CCNS(=O)(=O)c1cccc(C(=O)N(C2CC2)C(C)C(C)C)c1 (stereo not given) | 11 | 8
CCOC(=O)N1CCN(C2CCCN(C(=O)CCc3ccc(F)cc3)C2)CC1 (stereo not given) | 19 | 8
CCOC(=O)c1c(C)n(-c2ccc(OCC)cc2)c2c1cc(O)c1ccccc12 | -8 | -17
O=S1(=O)CCN2N=C(SCc3ccc(Cl)cc3)SC2=N1 | -3 | -4
OCC1(O)CCCN(Cc2nc3ccccc3s2)CC1 (stereo not given) | 7 | 3
CCn1c(C2CC(=O)N(c3cc(C)cc(C)c3)C2)nc2ccccc21 (stereo not given) | 1 | -3
COCCOC(=O)C1C(=N)OC2=C(C(=O)CC(C)(C)C2)C1c1cccc([N+](=O)[O-])c1 (stereo not given) | -6 | -11
COc1cnc(NS(=O)(=O)c2ccc(N)cc2)nc1 | -10&-6 | -10&-7
CCOC(=O)C1C(=N)Oc2cc(C)n(CC)c(=O)c2C12C(=O)N(Cc1cccc(C)c1)c1ccccc12 (stereo not given) | 2 | -2
COc1ccc(NC(=O)CCC2CCCN(Cc3ccc(F)c(OC)c3)C2)c(C)c1 (stereo not given) | 7 | 4
CCOC(=O)N1CCN(C(=O)c2ccc(S(=O)(=O)Nc3cccc(C)c3C)cc2)CC1 | 8 | 6
OCCC1(NCc2ccc(-n3cccn3)cc2)CCOCC1 | 9 | 7
c1ccc(Nc2nccc3[nH]c(-c4cccnc4)cc23)cc1 | -5 | -8
CCc1ccc(S(=O)(=O)N2CC(=O)Nc3ccccc32)cc1 | 2 | 6
O=C(CSc1nnc(Cc2cccnc2)c(=O)[nH]1)c1cccs1 | -3 | -3
COc1ccc(C(=O)Nc2c3c(nn2CC(=O)NCCc2ccccc2)CSC3)cc1 | -3 | 4
Cc1ccccc1C(=O)N[C@@H]1CCCCC1NC(=O)C1CCN(C(=O)c2ccc([N+](=O)[O-])cc2)CC1 (stereo not given in full) | 19 | 26
COc1cccc(C=CC(=O)Nc2nc(C)c(Cc3ccc4c(c3)OCO4)s2)c1 | 0 | 10
Following part.
SMILES | NPYLR7 agonist | NPYLR7 agonist max-min
CN1CCN(N=C2C(=O)Nc3ccc([N+](=O)[O-])cc32)CC1 | 3 | 1
CCCc1ncncc1C(=O)N1CCC2(CCCO2)CC1 | 19 | 10
CNC(=O)CSc1nnc2[nH]c(=O)c3c(n12)CCCC3 | -6 | -12
COc1cc(-c2nnc(NC(=O)CSc3nnc(N)s3)s2)cc(OC)c1OC | -4 | 5
COCc1ccc(CN2CCC(C(=O)Nc3cccc(-c4cccc(Cl)c4)c3)CC2)o1 | 6&-3 | 4&-4
CCCNC(=O)Cn1nc2c(c1NC(=O)c1ccc([N+](=O)[O-])o1)CSC2 | -9 | -14
CN(CCOc1ccccc1)C(=O)C1(O)CCN(Cc2ccccc2)C1 (stereo not given) | 14 | 11
O=c1n(CCOc2ccc(F)cc2)nc(C2CCNCC2)n1Cc1ccccc1 | 8 | 6

An excerpt; rates above refer to the full screens.
